RanGTP-Impb inh – disruptors of Ran-importin-beta complex formation – biochemical, FRET, CFP-Ran, YFP-importin-beta, homogeneous, primary screen. cell-free CFP-Ran/YFP-importin-beta FRET ratio. inhibition, % (test concentration not listed). 300,000 compounds, 1.1% hits. AID 2216;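 active = most replicates above 15%; inconclusive = exactly half above 15%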;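 note: 0% = DMSO wells and 100% = Ran loaded with GDP instead of GTP; wells of about 40 µL received 100 nL stock; the first replicate is given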
ALR H2O2 inh – inhibitors of human sulfhydryl oxidase ALR; P55789; purified ALR, DTT oxidation, H2O2 HRP-luminol luminescence; inhibition, % (concentration not given with the values); 290,000 compounds, 3.8% hits; AID 485317;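 active = mean and each replicate at 75% or more; inconclusive = only one of the two met; inactive = neither met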;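 note: stock transfer was 7.5 nL into about 7.5 µL; 0% = neutral wells and 100% = wells with inactivated enzyme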
Target sequence (P55789 whole entry, looked up): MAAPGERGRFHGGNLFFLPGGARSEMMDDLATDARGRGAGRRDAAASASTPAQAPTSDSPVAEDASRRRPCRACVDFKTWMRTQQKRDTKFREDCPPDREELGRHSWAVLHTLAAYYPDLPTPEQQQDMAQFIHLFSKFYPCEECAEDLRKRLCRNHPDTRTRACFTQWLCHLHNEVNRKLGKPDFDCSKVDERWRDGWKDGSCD
Beta cell apopt – beta cell apoptosis inhibition. AID 435005. protection from apoptosis, % (no concentration beside the values). 300,000 compounds, 0.8% hits. INS-1E cytokine-induced death, ATP luminescence, 48 h; percent of positive-control rescue, neutral wells zero;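 active = all replicates at 75% or more, or half of them and the mean; inconclusive = half reach 75% but not the mean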;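 note: 0% = cytokine-treated negative control wells and 100% = positive control rescue; higher means more ATP so stronger rescue from cytokine killing; wells of about 40 µL received 100 nL stock; the first replicate is given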
FGF22 binding – binders of recombinant human FGF22 by thermal shift; SYPRO orange fluorescence; percent of sucrose octasulfate shift, DMSO zero; AID 651658; calls only at 9.99 µM; Q9HCT0; 340,000 compounds, 1.5% hits;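 active = melting point raised past a set limit in the mean and every replicate; inconclusive = no clear call; three in four hits are not shown here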
Target sequence (Q9HCT0 whole entry, looked up): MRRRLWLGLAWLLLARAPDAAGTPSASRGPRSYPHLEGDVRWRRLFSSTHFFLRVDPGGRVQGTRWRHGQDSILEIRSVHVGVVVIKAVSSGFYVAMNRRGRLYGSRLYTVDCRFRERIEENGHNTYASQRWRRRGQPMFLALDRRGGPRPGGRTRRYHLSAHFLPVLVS
MLL AF4-AF9 inh – MLL-AF4/AF9 protein interaction inhibition; AlphaScreen, biotin-AF4 peptide binding to FLAG-AF9; inhibition, % at 10 µM; P42568; AID 651704; 350,000 compounds, 0.47% hits;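 active = every replicate reaching a set inhibition limit, whatever the replicate mean, cut at about 25% in these data; inconclusive = mean inhibition reaches that limit but some replicates miss it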;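 note: 0% = plate neutral control median and 100% = total signal loss; the record names both 10 and 1 µM as test concentration; the first replicate is given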
Target sequence (P42568 whole entry, looked up): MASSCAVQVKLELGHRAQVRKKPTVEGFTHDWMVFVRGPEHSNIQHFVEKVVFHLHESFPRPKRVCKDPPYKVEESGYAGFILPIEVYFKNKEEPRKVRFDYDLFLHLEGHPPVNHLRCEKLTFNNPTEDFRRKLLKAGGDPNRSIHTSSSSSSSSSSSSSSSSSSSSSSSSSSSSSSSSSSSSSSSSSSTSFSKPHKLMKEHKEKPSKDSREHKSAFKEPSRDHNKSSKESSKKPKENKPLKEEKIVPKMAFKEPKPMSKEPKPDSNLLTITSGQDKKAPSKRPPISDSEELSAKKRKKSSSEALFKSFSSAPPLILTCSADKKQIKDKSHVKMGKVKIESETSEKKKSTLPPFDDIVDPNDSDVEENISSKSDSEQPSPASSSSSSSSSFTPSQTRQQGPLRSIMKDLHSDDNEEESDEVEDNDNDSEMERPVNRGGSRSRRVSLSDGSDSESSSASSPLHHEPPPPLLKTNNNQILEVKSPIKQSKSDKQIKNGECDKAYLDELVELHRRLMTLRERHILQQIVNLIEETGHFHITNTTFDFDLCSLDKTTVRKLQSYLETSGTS
Ecoli rRNA inh – inhibits bacterial ribosomal RNA function over humanized ribosomes; 350,000 compounds, 1.6% hits; GFP signal change (wild-type ribosome), % (test concentration not listed); E. coli WT GFP vs humanized-ribosome RFP mutants, fluorescence, 24 h; hits give low values; DMSO median 0, no signal -100;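 active = significant combined selectivity score with lowered wild-type GFP, culture density cut under 30%, mutant RFP and density less affected; inactive = any of these conditions unmet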; note: one replicate is shown; some compounds called inactive have numbers as strong as hits
Calb FLC – C. albicans growth modulation with fluconazole. C. albicans CaCi-2 (fluconazole-resistant clinical isolate) + fluconazole, Alamar Blue growth, 48 h. growth inhibition, % (concentration not given with the values). 300,000 compounds, 0.57% hits;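 active = most replicates above 75%; inconclusive = exactly half above 75%; inactive = most below 75%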;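 note: all wells also contain fluconazole at 8 µg/ml as a sub-toxic cotreatment; 0% = median of DMSO wells and 100% = median of geldanamycin control wells; wells of about 8 µL received 7.5 nL stock; the first replicate is given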
T cruzi inh – blocks replication of Trypanosoma cruzi. T. cruzi beta-gal in NIH3T3, luminescence, 90 h. inhibition, % (test concentration not listed). 300,000 compounds, 1.4% hits. AID 1885;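 active = mean inhibition across valid replicates above about 55%, limit read from the data; inconclusive = mean below that limit but half or more replicates reach it; inactive = mean below it, under half of replicates reach it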;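 note: signal also drops with host cell toxicity which is not excluded here; 0% = plate median of DMSO wells and 100% = zero luminescence signal; higher percent means less beta-gal luminescence so fewer parasites; stock transfer was 50 nL into about 50 µL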
Ecoli rRNA inh OD600 – second read-out of Ecoli rRNA inh, no call of its own (marks repeat the call); OD600 change, %; measured here: OD600 growth;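 optical density of the mix in the first replicate; 0 = DMSO median and -100 = no signal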
Ecoli rRNA inh RFP – recorded beside Ecoli rRNA inh, whose call it bears; RFP signal change, %; measured here: RFP humanized mutant strains;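 first replicate; 0 = DMSO median and -100 = no signal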
* = called active by the depositor; i = inactive; ? = inconclusive; nt = not tested or not shown.

SMILES	RanGTP-Impb inh	ALR H2O2 inh	Beta cell apopt	FGF22 binding	MLL AF4-AF9 inh	Ecoli rRNA inh	Ecoli rRNA inh OD600	Ecoli rRNA inh RFP	Calb FLC	T cruzi inh
C/C(N)=C(/C#N)C(=O)COC(=O)CCC1CCCC1	1.1	-2	2	nt	nt	nt	nt	nt	2	-1
CCCCCCSc1ccc([C@H]2N[C@@](CC(C)C)(C(=O)OC)[C@H]3C(=O)N(CC)C(=O)[C@@H]23)cc1	-1.8	2	60	i	-18	10	10	-2.7	-11	-12
COc1ccccc1NC(=O)C[n+]1ccccc1C	-3.2	-5	-2	i	-7.7	12	9	1.9	6	9
Cc1nn(Cc2ccc(F)cc2)c(C)c1NC(=O)c1nn(C)cc1Cl	2.9	-5	-1	nt	nt	nt	nt	nt	-5	-21
COc1ccc(OCc2cccc(C(=O)Nc3ccc(CN4CCCCC4)cc3)c2)cc1	7.8	-5	15	i	10	nt	nt	nt	-8	31
O=C(c1cc(-c2ccc(Cl)c(Cl)c2)on1)N1CCCCCC1	0.2	-15	5	i	0.0	7	8	1.2	-6	13
CC(C)CN(C(=O)COC(=O)CCCc1c[nH]c2ccccc12)c1c(N)n(Cc2ccccc2)c(=O)[nH]c1=O	8.1	1	-8	i	-2.7	3	7	1.7	2	9
COC(=O)CN1C(=O)C(O)(CC(=O)c2ccccc2)c2ccccc21 (stereo not drawn)	1.2	-4	-18	nt	nt	nt	nt	nt	-5	-2
Nc1ccc(OCc2ccccc2)cc1	-3.6	97*	-3	i	12	3	8	-3.2	-10	4
CCOC(=O)c1c(C)[nH]c(C(=O)COC(=O)CCC(=O)c2ccc3c(c2)OCCO3)c1C	3.4	1	-10	nt	nt	nt	nt	nt	-7	1
CS(=O)(=O)CCC(C(=O)OCc1ccc(Cl)cc1)N1C(=O)c2ccccc2C1=O (stereo not drawn)	-2.6	-2	-9	nt	nt	nt	nt	nt	13	-8
CCOC(=O)C1CCCCN1C(=O)c1ccc2nc(Cc3ccc(OC)cc3)oc2c1 (stereo not drawn)	1.5	-2	0	i	-10	-27	-22	-1.3	-10	12
COc1ccc([C@H]2CC(=O)C=C(/C=C/c3ccc(Cl)cc3)C2)cc1	nt	-1	-8	i	12	-12	-10	-12	nt	nt
CCOc1ccc(C(=O)N2CCN(c3ncccn3)CC2)cc1	2.2	-6	-6	i	0.1	17	6	-0.2	1	-19
CCN(CC)CCOc1c(Br)ccc2c1sc1nc3n(c(=O)c12)CCC3	-2.0	-5	40	nt	nt	nt	nt	nt	-4	21
CCc1nnc(NC(=O)CCC(=O)N2CCN(C3c4ccccc4-c4ccccc43)CC2)s1	-0.2	-66	-6	i	4.4	8	0	-1.9	0	6
COCCN(C(=O)COC(=O)CCCOc1ccc(OC)cc1)c1c(N)n(Cc2ccccc2)c(=O)[nH]c1=O	-1.8	-8	2	i	0.4	1	6	-1.0	3	-10
COc1ccc(C)cc1S(=O)(=O)NC(C)C(=O)NC1CC1 (stereo not drawn)	-2.1	nt	-6	i	-1.6	11	10	-1.0	4	-5
O=C(NCCCN1CCOCC1)c1ccc(Br)s1	-3.5	4	1	i	7.7	21	12	1.1	-5	-16
COc1ccc(/C(C)=N/NC(=O)c2ccc(CSc3cccc4cccnc34)cc2)cc1OC	-1.6	-14	-3	nt	nt	nt	nt	nt	?	-8
COc1cc(/C=C/C(=O)OCC(=O)N2CCC(C)CC2)ccc1O	nt	99*	1	i	-1.2	-2	-5	-1.3	-3	-8
COC(=O)[C@]1(C)CCC[C@@]2(C)C3CC[C@@]4(C)C[C@]3(CCC21)CC(=O)N4C (stereo partly drawn)	nt	-10	-1	i	5.2	-52	-75	-38	nt	nt
CCn1cc(Cl)c(C(=O)Nc2ccc3c(c2)OCCO3)n1	-3.9	5	-3	i	-2.0	-6	-1	-3.4	1	0
O=C(NCc1ccc(Cl)cc1)c1ccccc1Oc1ccccc1	1.2	-10	-5	nt	nt	nt	nt	nt	0	2
Cc1cc(N)ccc1NC(=O)CN1CCOCC1	-0.5	nt	-2	i	0.7	24	7	5.5	-6	4
C=CCNc1nc(C2(C)CC3(CC(C)(C)OC3=O)C(=O)O2)cs1 (stereo not drawn)	-0.9	-13	-10	nt	nt	nt	nt	nt	-10	-1
N#CCSc1nc2sccc2c(=O)n1-c1ccccc1	-1.4	-9	-1	i	-6.9	2	7	-0.8	-86	2
COc1cccc(Cc2n[nH]c(=S)n2Cc2ccco2)c1	2.4	27	1	i	-13	-6	1	13	20	-7
CCOC(=O)C1CCN(CCC(=O)Nc2cccc(Cl)c2)CC1	0.1	nt	-10	nt	nt	nt	nt	nt	-5	-29
Cc1cc(NC(=O)COC(=O)c2oc3c(Cl)cccc3c2C)no1	3.2	-10	0	nt	nt	nt	nt	nt	-6	-9
NC(=O)C1CCN(C(=O)COc2ccc3c4c(c(=O)oc3c2)CCC4)CC1	4.8	-16	-1	i	-0.4	nt	nt	nt	-2	-2
COc1ccc(NS(=O)(=O)c2ccc3oc(SC(C)C(N)=O)nc3c2)cc1 (stereo not drawn)	0.8	-3	28	i	1.6	-1	-14	2.2	21	-48
O=C(NCc1cccc(Cl)c1)c1ccco1	0.1	1	-1	i	-23	-11	-12	-4.6	-7	-4
CN(CCCNC(=O)c1ccc(/C=N/O)nc1)CCCN(C)Cc1ccccc1	2.5	3	-3	nt	nt	nt	nt	nt	3	22
CCOc1ccc(S(=O)(=O)N2CCC(C(=O)NCC3CCCO3)CC2)cc1Cl (stereo not drawn)	1.1	1	-2	nt	-3.0	1	1	-0.6	15	-2
CCOc1ncccc1C(=O)OCC(=O)Nc1ccc(-c2nc3ccc(C)cc3s2)cc1	5.6	19	-1	i	3.0	3	4	1.8	-1	0
O=C(CSc1nc(C2CC2)nc2ccccc12)Nc1ccccc1Cl	-1.8	-3	13	i	5.7	0	8	-1.5	29	-8
Cc1ccc(C(=O)NCCNC(=O)CN2CCOCC2)cc1	-1.0	-10	1	nt	nt	nt	nt	nt	2	-8
CC(C)COC(=O)C(N)C(C(=O)OCC(C)C)c1ccccc1 (stereo not drawn)	5.7	1	-7	nt	nt	nt	nt	nt	-4	0
Cc1ccc(S(=O)(=O)c2nc(S(C)(=O)=O)sc2NCC2CCCO2)cc1 (stereo not drawn)	1.8	-8	-2	nt	nt	nt	nt	nt	-7	8
O=C(NNc1ncc(C(F)(F)F)cc1Cl)c1c(Cl)cccc1Cl	?	nt	-7	nt	nt	nt	nt	nt	21	-2
Cc1ccc(NC(=O)C2CCCN2C(=O)OCc2ccccc2)c(O)c1 (stereo not drawn)	2.5	86*	-5	i	0.7	-8	-11	-2.1	3	-19
COC(=O)C1=C(NC(=O)c2ccc(Br)cc2)CCS1	-0.6	28	2	i	3.8	-4	2	-0.7	0	-19
CC(=O)c1ccc[n+](CC(=O)NC(C)c2ccccc2)c1 (stereo not drawn)	2.8	-4	-1	i	0.0	11	18	-0.2	0	-9
CCc1cccc(C)c1NC(=O)Nc1ccc2c(c1)OCO2	3.6	1	-11	i	1.6	15	16	0.0	-14	-14
Cc1ccc(C)c(NC(=O)CCC(=O)NN=C2CCCC2)c1	nt	-7	-2	i	-0.6	17	18	4.5	-14	nt
COC(=O)c1cc2c(ccn2C)n1C	22*	-64	11	i	-2.7	17	12	3.1	24	2
Cc1cc(NC(=O)CN2C(=O)C3CC=CCC3C2=O)no1 (stereo not drawn)	-4.9	0	-2	nt	nt	nt	nt	nt	17	-5
CCCCCSc1nnc(N)s1	-0.4	nt	-3	i	-1.1	nt	nt	nt	-2	-1
COCc1cc(C)nc2sc(C(=O)NCCO)c(-n3cccc3)c12	0.6	-6	-3	i	-12	1	2	-0.5	7	1
Cn1c(SCC(=O)NC2CCCCC2)nnc1-c1cc2cc(Cl)ccc2o1	-2.5	-13	1	nt	nt	nt	nt	nt	-5	-7
COc1cccc(/C=N/NC(=O)c2cnccn2)c1	-2.7	10	1	nt	nt	nt	nt	nt	9	-7
O=C(Nc1ccc(F)cc1)N1CCCCCC1	-2.2	-6	-8	i	-0.3	9	11	-0.8	-4	0
Oc1c(N=NC(=S)Nc2ccccc2F)c2ccccc2n1Cc1ccccc1F	-4.5	nt	46	i	8.5	15	16	3.8	10	88*
O=C(CN(CCc1ccccc1)C(=O)CNS(=O)(=O)c1ccc(F)cc1)NCC1CCCO1 (stereo not drawn)	-0.8	-11	4	nt	nt	nt	nt	nt	0	-1
CNC(=O)c1sccc1-n1cccc1	-0.1	-1	-7	nt	nt	nt	nt	nt	12	-6
COc1cccc(-c2nn(C)c3sc(C(=O)NCc4ccc5c(c4)OCO5)cc23)c1	8.5	nt	2	i	2.6	-1	-2	0.0	9	26
CN1CCN(/N=C/c2ccc(C#N)cc2)CC1	-0.8	2	-3	i	2.1	14	18	3.3	23	49
Oc1ccc(Cc2ccc(Cl)cc2)c(O)c1	?	97*	-6	i	5.2	-44	-61	-14	-14	-11
Nc1nnnn1CC(=O)N/N=C/c1cccs1	1.0	4	12	i	nt	7	1	0.7	6	-14

(next part)
SMILES	RanGTP-Impb inh	ALR H2O2 inh	Beta cell apopt	FGF22 binding	MLL AF4-AF9 inh	Ecoli rRNA inh	Ecoli rRNA inh OD600	Ecoli rRNA inh RFP	Calb FLC	T cruzi inh
CCCCN(CCCC)C(=O)/C=C/c1cccc([N+](=O)[O-])c1	3.9	4	4	nt	nt	nt	nt	nt	-5	30
CC(=O)C(C)n1c(CN2CCN(C(=O)c3ccco3)CC2)nc2c1c(=O)n(C)c(=O)n2C (stereo not drawn)	0.9	0	-3	i	-1.4	3	4	-3.2	-3	-10
O=C(COc1ccc(C(=S)N2CCCC2)cc1)Nc1ccccc1C(F)(F)F	-3.4	2	nt	i	-0.7	-7	-24	0.7	3	-4
O=C(COC(=O)C1CC2C=CC1C2)Nc1cccc(S(=O)(=O)N2CCOCC2)c1 (stereo not drawn)	2.3	nt	-3	i	2.2	0	2	-4.2	-2	-3
O=[N+]([O-])c1cc([N+](=O)[O-])c(Oc2c(F)cc(F)cc2F)cc1NN1CCCCC1	2.2	29	-5	i	0.9	-6	-5	4.1	-7	18
COc1ccc(-n2c(=O)[nH]c3c(C(N)=O)nc(C4CCCCC4)nc32)cc1	-1.7	-9	-1	i	0.4	5	3	0.0	9	21
COc1ccc(N2C(=O)CCC(C(=O)N3CCOCC3)C2c2ccc(F)cc2)cc1 (stereo not drawn)	-0.7	-1	-9	nt	nt	nt	nt	nt	0	-15
N#C/C(=C/c1cccs1)c1ccccn1	0.2	-7	-8	i	2.4	-13	-19	-1.0	3	-8
O=S1(=O)C=C(Sc2nc3cc(Cl)ccc3o2)c2ccccc21	-1.7	nt	-12	nt	nt	nt	nt	nt	39	65*
CN(C)S(=O)(=O)c1ccc(N2CCCC2)c(C(=O)NC(c2ccccc2)c2ccccc2)c1	19*	-24	-8	nt	nt	nt	nt	nt	-3	-5

The list is partial; the hit share may differ from the screen's.
